From PubChem BioAssay
VDR inh: Inhibitors of the vitamin D receptor (VDR): qHTS; Vitamin D3 receptor (Homo sapiens), P11473; VDR-SRC2-3 peptide fluorescence polarization, 2 h; Potency, µM, inactives show max response, negative = inhibition, actives largely listed as inhibitors; 400,000 compounds, 0.93% hits; active = well fitted inhibition curve with a large enough effect; inconclusive = small, poorly fitted or top-dose-only effect, or another doubt; inactive = no such curve, though single readings can be large or run the other way; note: series mostly up to about 120 µM
Target sequence (P11473 whole entry, looked up): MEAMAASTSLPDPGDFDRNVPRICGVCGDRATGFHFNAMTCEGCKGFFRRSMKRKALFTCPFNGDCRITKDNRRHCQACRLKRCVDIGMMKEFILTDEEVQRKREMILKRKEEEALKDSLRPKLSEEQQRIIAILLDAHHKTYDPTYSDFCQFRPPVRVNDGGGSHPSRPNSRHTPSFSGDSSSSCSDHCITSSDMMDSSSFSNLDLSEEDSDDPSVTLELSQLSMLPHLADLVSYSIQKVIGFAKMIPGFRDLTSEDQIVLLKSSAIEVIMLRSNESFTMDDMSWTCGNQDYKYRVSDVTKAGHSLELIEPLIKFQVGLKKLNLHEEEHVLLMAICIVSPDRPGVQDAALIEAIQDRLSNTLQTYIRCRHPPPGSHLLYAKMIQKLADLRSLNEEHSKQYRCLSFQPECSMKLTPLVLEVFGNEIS
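The screen uses fluorescence polarization to detect compounds that interfere with recruitment of the SRC2-3 coactivator peptide to VDR; plates are read after 2 h at room temperature.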
Starred values were filed as active, the others as inactive; ? = inconclusive; & = joins results of further samples; [ ] = remark or other dose. % is set by controls: 0 for no effect and ±100 for the full control effect; potency is the fitted concentration of half-maximal effect. The list is partial; rates above refer to the full screens.

canonical_smiles	VDR inh
CCn1c2ccccc2c2cc(CN3CCN(Cc4ccccc4C)CC3)ccc21	-14.7%
CNc1nc(-c2ccc(Cl)cc2)cs1	?
CC1(C)Cc2c(c(N3CCOCC3)nc3sc(C(=O)N4CCCCC4)c(N)c23)CO1	?
CC(C(=O)N1CCOCC1)c1ccc([N+](=O)[O-])cc1 (centres undefined)	-22.3%
COc1cccc(NC(=O)Cn2nc(C)c3c(C)n(-c4ccccc4)nc3c2=O)c1	3.4%
c1ccc(COc2cccc(CNCc3cccnc3)c2)cc1	-12.3%
O=C(NCCCOC(=O)c1ccccc1)c1ccccc1	-0.2%
O=C(CN1CCOCC1)Nc1ccc2c(c1)OCO2	-13.7%
CCOc1ccc(NC(=O)CCC(=O)Nc2cc(OC)c(NC(=O)c3ccco3)cc2OC)cc1	-1.6%
CCOC(=O)c1cccc(NC(=O)N2CC(CC)Sc3ccccc32)c1 (centres undefined)	-2.0%
CCOC(=O)c1cnn(-c2ccc(C(F)(F)F)cn2)c1N	-7.3%
CCCCNC(=O)CN1C(=O)COc2ccc(S(=O)(=O)N3CCCC3)cc21	-9.7%
CC(C)COc1ccc(/C(O)=C2/C(=O)C(=O)N(CCN(C)C)C2c2ccncc2)cc1 (centres undefined)	3.7%
O=C(CSc1nccn1Cc1ccco1)Nc1ccccc1C(F)(F)F	-13.4%
COC(=O)c1ccc(NC(=O)COC(=O)CCC2CCCC2)cc1	-1.2%
COc1cc(NC(=S)NN2CCOCC2)cc(OC)c1	-1.2%
Cc1cccc(NS(=O)(=O)c2ccc(C)c(C(=O)N3CCN(C(=O)c4ccco4)CC3)c2)c1	-10.4%
COc1cc(OC)cc(C(=O)Nn2cnnc2)c1	-3.5%
COC(=O)c1cccc(-n2c(CCC(=O)O)ccc2-c2ccc(OC)cc2)c1	-26.0%
CC(CCc1ccccc1)NC(=O)c1nnc(Cc2ccc(F)cc2)o1 (centres undefined)	-14.0%
COc1ccc(CCNC(=O)c2c[nH]c3ccc(F)cc3c2=O)cc1OC	-15.8%
CCN1CCN(C(=O)/C=C/c2cccc(Cl)c2)CC1	-0.7%
COc1cccc(NC(=O)CN(C)C(=O)CN2C(=O)NC(C)(c3ccc4ccccc4c3)C2=O)c1 (centres undefined)	-2.0%
CCOc1ccccc1C1NC(=O)CCC1[N+](=O)[O-] (centres undefined)	7.1%
Cc1noc(C)c1C(=O)NCC(=O)Nc1ccccc1Br	-19.6%
CC(O)[C@H]1CNC(=O)C(=O)N1CCc1cccc2ccccc12 (some centres undefined)	1.1%
CC(C)CC(=O)Nc1ccnn1C1CCN(C(=O)c2ccc(F)cc2Cl)CC1	-5.6%
CC(CCc1ccccc1)NC(=O)Cc1ccc([N+](=O)[O-])cc1 (centres undefined)	?
Cc1n[nH]c(C)c1CN(C)C(=O)C1CCC(=O)N(CCc2cccc(F)c2)C1 (centres undefined)	2.5%
COc1ccccc1C1C([N+](=O)[O-])=CC([N+](=O)[O-])=CN1C (centres undefined)	4.0%
CCOc1cc(C2C(C(=O)OC)=C(C)NC3=C2C(=O)c2ccccc23)c(Br)cc1OC (centres undefined)	-3.5%
O=C(Nc1ccccc1C(F)(F)F)C1CCCC1	6.6%
COc1ccc(NC(=O)N2CC3(CCN(C(=O)c4cccn4C)CC3)C2)cc1	-5.8%
COc1ccc(C(=O)NNC(=O)c2cccs2)cc1S(=O)(=O)N1CCOCC1	8.6%
COC(=O)[C@@H](NC(=O)O[C@@H]1C(=O)c2cc(Br)ccc2O[C@H]1c1cccc(OC)c1)C(C)C	4.6%
CCOc1ccccc1CNC(=O)c1ccc(NC(=O)C2=CSCCO2)cc1	13.0%
CC(=O)Oc1c(-c2ccccc2)oc2c(CC=C(C)C)c3c(c(OC(C)=O)c2c1=O)C=CC(C)(C)O3	-6.1%
O=C(COc1ccc2ccc(=O)oc2c1)NCCc1c[nH]c2ccc(F)cc12	13.7%
CCCCn1c(=O)[nH]c(=O)c2c1nc(-c1ccc([N+](=O)[O-])cc1)n2CC	4.6%
Cc1ccc(/C=[N+](/C)[O-])cc1	10.8%
NC(=O)c1nsc(C(=O)N(c2ccccc2)C(C(=O)NCc2ccc(F)cc2)c2ccco2)c1N (centres undefined)	-0.8%
COc1ccc(N2CCCC2)c(NC(=O)c2ccc([N+](=O)[O-])o2)c1	79.4µM*
O=C(NC1CC(=O)N(c2ccccc2)C1)c1cccs1 (centres undefined)	6.0%
CCOC(=O)c1[nH]c(C)c(CN(CCc2ccccc2)S(C)(=O)=O)c1C	-4.3%
COc1ccc(-c2ncncc2-c2csc(C)n2)c(O)c1	6.5%

A stretch from further up, for reference:
canonical_smiles	VDR inh
CCOc1cc(C2C(C(=O)OC)=C(C)NC3=C2C(=O)c2ccccc23)c(Br)cc1OC (centres undefined)	-3.5%
O=C(Nc1ccccc1C(F)(F)F)C1CCCC1	6.6%

Next section
canonical_smiles	VDR inh
O=C(CCNC(=O)N1CC(=O)Nc2ccccc21)NCCc1cccc(F)c1	-8.4%
COc1ccc(Cl)c(Cn2c(NCc3ccco3)nc3c2c(=O)n(C)c(=O)n3C)c1	7.6%
COc1ccc2c(c1)CC(C1(O)C(=O)Nc3ccccc31)C2=O (centres undefined)	-16.5%
CCCc1cnc2c(c1SCC(=O)Nc1cccc(C)c1C)c(=O)n(C)c(=O)n2C	4.6%
COc1cc(OC)c(C(=O)OCCCOC(=O)c2cc(OC)c(OC)cc2OC)cc1OC	-7.9%
Cc1cc(C(=O)N2CCN(C(=O)C3CCCO3)CC2)no1 (centres undefined)	-2.0%
CCC(=O)OCc1cnc(C)c2oc(=O)c(C(=O)Nc3ccc(CC)cc3)cc12	-3.6%
COc1ccc(C(=O)NC(=S)Nc2ccc(N3CCN(C(C)=O)CC3)cc2)cc1[N+](=O)[O-]	15.0%
COc1ccc(OC)c(N(CC(=O)Nc2ccccc2)S(=O)(=O)c2ccccc2)c1	-3.4%
CCOC(=O)c1cc2sc(C)cc2n1CC(=O)N1CCc2ccccc21	3.4%
CCC(=O)N1CCCn2c1nc1ccccc12	5.2%
O=C(COC(=O)C1C2CC3OC(=O)C1C3C2)Nc1ccc(Br)cc1 (centres undefined)	5.6%
Cc1nn(C(=O)c2ccccc2F)c(C)c1S(=O)(=O)N1CCCCCC1	2.5%
Cc1ccc(CCNC(=O)Cn2ncc3c([nH]c4ccc(C)cc43)c2=O)cc1	18.5%
Cc1cccc(-c2nc(CSc3nc4c(c(=O)[nH]3)CCC4)c(C)o2)c1	7.3%
O=C(Nc1ccccc1CC[N+](=O)[O-])N1CCN(c2ccccc2)CC1	-2.7%
Cc1ccc(OC(C)C(=O)Nc2ccc(S(=O)(=O)Nc3nccs3)cc2)cc1 (centres undefined)	-24.5%
COc1c(C)cc(Br)cc1C(=O)Nc1ccccc1N1CCN(C(=O)c2ccccc2)CC1	-8.6%
COc1cccc(C(=O)COC(=O)CCCC(=O)NC2CCCCC2)c1	4.1%
Cc1ccc2nc(SC(Cc3cc(Cl)ccc3Cl)C(=O)O)[nH]c2c1 (centres undefined)	-0.6%
Cc1ccc(S(=O)(=O)/N=C(\Nc2cccc(C)c2)Nc2nc(C)cc(C)n2)cc1	-6.0%
Cc1c(C(=O)OC2CCCCC2)[nH]c2c1C(=O)CC(C)(C)C2	9.4%
CCN1CCN(C(=S)Nc2ccc3nc(N4CCN(CC)CC4)cc(C)c3c2)CC1	-18.9%
Cc1nc2ncnn2c(C)c1Cc1ccc(Cl)cc1	17.9%
CCc1ccccc1NC(=S)N(CCCN1CCOCC1)Cc1ccccn1	-15.7%
CCOC(=O)c1c(NC(C)=O)sc2c(OCCN(CC)CC)c(Br)ccc12	-9.1%
CC1CCc2c(sc(NC(=O)c3cc(-c4cccc(Cl)c4)on3)c2C(N)=O)C1 (centres undefined)	7.1%
O=c1cc(CSc2ccc(Cl)cc2)nc(-c2ccncc2)[nH]1	-7.6%
CSc1nc2ccc(S(=O)(=O)NC3CCCCC3)cc2s1	-14.5%
COC(=O)C=C1CCC2C3CC(F)C4(O)CC(=O)CCC4(C)C3C(=O)CC12C (centres undefined)	14.5%

Rewritten with the structure last: two of the compounds above
VDR inh | SMILES
7.1% | CC1CCc2c(sc(NC(=O)c3cc(-c4cccc(Cl)c4)on3)c2C(N)=O)C1 (centres undefined)
-7.6% | O=c1cc(CSc2ccc(Cl)cc2)nc(-c2ccncc2)[nH]1

(further entries)
canonical_smiles	VDR inh
S=C1SCN(Cc2ccco2)CN1Cc1ccco1	-7.0%
O=C(NCc1cccc(OC(F)(F)F)c1)C1CCC(=O)N(Cc2cccc(F)c2)C1 (centres undefined)	-6.3%
CC(=O)OC(C(=O)n1nc(C)cc1C)c1ccccc1 (centres undefined)	5.0%
CCN(c1ccc(OC)cc1)S(=O)(=O)c1nnc(NC(=O)c2ccccc2Cl)s1	-4.1%&6.3%
CC(OC(=O)C1CCCCC1)c1nc2ccccc2[nH]1 (centres undefined)	-3.6%
CCOc1ccccc1NC(=O)Cn1nc(N2CCN(c3ccccc3)CC2)ccc1=O	3.8%
Cn1c(SCc2ccc(Cl)cc2)nnc1-c1ccc2nonc2c1	-9.7%
CC[n+]1ccc(/C=C2\Sc3ccccc3N2CCCS(=O)(=O)[O-])c2ccccc21	-18.8%
O=C(NCC(=O)N(Cc1ccccc1)C(C(=O)NC1CCCC1)c1ccncc1)c1ccco1 (centres undefined)	-9.4%
c1ccc(-c2cnnc(N3CCCCC3)n2)cc1	12.6%
CC(=O)CCc1ccc(OC(=O)c2cccnc2)cc1	11.2%
CCCCCN(C(=O)CCC(=O)OCc1ccccc1C)c1c(N)n(CCCC)c(=O)[nH]c1=O	7.0%
COc1ccc2c(c1)c1ncn(CCN3CCNCC3)c(=O)c1n2C	-3.4%
Cc1cc(-c2ccc(Br)s2)nc(-n2cccc2)n1	12.5%
COc1cccc(NC(=O)c2ccc(OC(F)(F)F)cc2)c1	-5.5%
Cn1c(=O)c2sccc2n(Cc2ccc(Br)cc2)c1=O	-3.6%
COc1ccc(S(=O)(=O)Nc2ccccc2C(=O)N2CCOCC2)cc1Br	-4.2%
Cc1noc(C(=O)Nc2cccnc2)c1Cl	18.2%
CCOC(=O)N1CCC(N2CCCC(C(=O)c3cc(F)ccc3OC)C2)CC1 (centres undefined)	15.2%
Cc1cccc(C2(c3cccc(C)c3)CC2C(=O)Nc2ccc([N+](=O)[O-])cc2O)c1 (centres undefined)	-3.0%
O=C(c1ccncc1)N1CCN(CCc2ccccc2)CC1	-1.4%
COC(=O)c1c(N)c(C#N)c(C)n1-c1ccccc1	0.0%
COC(=O)c1ccc(/C=N/NC(=O)C2CC(=O)N(c3ccc(OC)cc3)C2)cc1 (centres undefined)	4.7%
O=C1NC(c2ccc3c(c2)OCO3)Oc2ccccc21 (centres undefined)	11.9%
c1ccc(-c2ccc(-n3ccnc3)cc2)cc1	-2.4%
CC(C)CNC(=O)c1cc(=O)[nH]c2ccc(S(=O)(=O)Nc3ccc(F)cc3)cc12	-16.3%
O=C(O)CC1(CC(=O)NCc2cc(F)cc3c2OCOC3)CCCCC1	-12.4%
O=C(NCCCn1ccnc1)c1csc2ccccc12	-6.5%
COC(=O)C1=C(C)N(c2cc(Cl)cc(Cl)c2)C(=O)C1	2.1%
Cc1ccc2cccc(NC(=O)C(C)Oc3ccc(Cl)cc3Cl)c2n1 (centres undefined)	-17.8%
NC(Cc1c[nH]c2ccccc12)C(=O)NCc1ccccc1 (centres undefined)	-11.3%
Cc1c(C(=O)N2CCCCC2)c(S(=O)(=O)N2CCC(C)CC2)c(C)n1C	?
CCc1ccccc1NC(=O)C1CCN(S(C)(=O)=O)CC1	-16.7%
CC(C)N=C1NN=C(c2cccs2)C(CC(=O)O)S1 (centres undefined)	?
COc1ccc(N(C)S(=O)(=O)c2cccc(C(=O)OCC(=O)Nc3sc4c(c3C#N)CCCCC4)c2)cc1	-8.2%
CC1CCCC(NC(=O)c2cccc(S(=O)(=O)N3CCCCC3)c2)C1C (centres undefined)	-4.3%
CC(NS(=O)(=O)c1ccc2c(c1)CC(=O)N2C)c1ccccc1 (centres undefined)	-11.9%
O=C(Nc1ccc2oc(-c3cccnc3)nc2c1)c1cc2ccccc2o1	12.9%
COc1ccc(-c2c3c(nc4sc5c(=O)[nH]c(C)nc5c24)CCC3)cc1	16.8%
CCc1ccc(C(=O)c2cncc(Br)c2)cc1	2.6%
CCOc1ccc(CCNC(=O)c2cccc(S(=O)(=O)N3CCCC3)c2)cc1OCC	-4.2%
O=C(Nc1cccc(Cl)c1)NC1(C(=O)NCc2cccs2)CCCCC1	14.5%
Cc1ccc(S(=O)(=O)Cc2cn3cccnc3n2)cc1	-2.8%
CCC(C)(C)n1nnnc1C(c1cc2cc(C)cc(C)c2[nH]c1=O)N1CCCC1 (centres undefined)	32.2%[activator]
COc1cc2c(c(OC)c1)C(c1cccc(OC)c1OC)CC(=O)N2 (centres undefined)	-10.8%
Cc1nc(Nc2ccc(O)cc2)c2c3c(sc2n1)CCCC3	-0.3%
COc1ccccc1NC(=O)c1ccc2c(=O)n3c(nc2c1)CCC3	7.0%
C=C(C)COc1ccc2c(CC)cc(=O)oc2c1C	?
O=C(Nc1ccc2c(c1)OCCO2)C(c1ccc(F)cc1)N1CCCCC1 (centres undefined)	3.9%
O=C1/C(=C\Nc2ccccc2)CCN1c1ncccn1	-18.1%
O=C(CSCc1ccccc1)N/N=C/c1ccccc1OCc1ccccc1	-4.0%
